Assay outcomes from PubChem.
A1 inhib = A1 inhibition; actives 0.51% (n = 21,000); caspase activation, % (concentration not given with the values); AID 2241; MEF A1-2A-BIM cells, caspase-Glo luminescence, 3 h; percent of clofoctol signal, DMSO as zero;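 active = most replicate scores above 10, or exactly half above 10 with mean activity above 10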;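 also: effector caspase 3 and 7 activity cleaving a DEVD luciferin substrate; 50 nL library stock added to about 30 µL; numbers are from one replicate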
BJeLR viability = compounds reducing viability of BJeLR cells; BJeLR fibroblasts viability, CellTiterGlo ATP luminescence, 48 h; HRASV12, hTERT and SV40 LT/ST transformed; viability loss activity score, % (no concentration beside the values); actives 0.64% (n = 30,000); AID 2275; in the data active = viability loss activity score above about 50%; about a fifth of its hits are not listed in these tables;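 also: higher score means fewer live cells and less ATP luminescence; stock transfer was 50 or 100 nL into about 30 µL; 0% = vehicle wells and 100% = a reference killing control; one replicate is shown; the record names a cut of 85%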
* marks the source's active call; other numbers are inactive results.

Screening Cc1ccc(S(=O)(=O)N(C)C[C@H]2Oc3c(NC(=O)Nc4cccc5ccccc45)cccc3C(=O)N([C@H](C)CO)C[C@H]2C)cc1 returned BJeLR viability 1.6.
CC(C)(C)N1C(=O)c2ccccc2C1=O was read as A1 inhib -0.3 and BJeLR viability -0.7.
For CCOC(=O)c1c(C(C)(C)C)oc2ccc(OCc3ccc(C(=O)OC)cc3)cc12 the results were A1 inhib 1.1 and BJeLR viability -5.4.
Screening CCN(CC)c1ccc(NC(=O)C(C)C)cc1 returned A1 inhib 0.9 and BJeLR viability 0.7.
Screening CC(C)NC(=O)N(C)C[C@@H]1Oc2c(NC(=O)c3cnccn3)cccc2C(=O)N([C@H](C)CO)C[C@@H]1C returned BJeLR viability 5.4.
`Cn1c2ccccc2c2cnn(CC(=O)N3CCCC3)c(=O)c21` gave A1 inhib -1.6 and BJeLR viability -5.0.
CCOC(CCn1c(SC)nc2c(sc3ccccc32)c1=O)OCC was read as A1 inhib -1.0 and BJeLR viability -1.3.
For NC(=O)NC1C(=O)c2ccccc2OC1c1ccccc1 (stereo unspecified) the results were A1 inhib 1.1 and BJeLR viability 42.2.
Screening CCOC(=O)c1c(-c2cccs2)csc1NC=O returned A1 inhib -0.5 and BJeLR viability -3.3.
`Cc1cc(C(=O)Nc2cccc3c2O[C@H](CN(C)C)[C@@H](C)CN([C@@H](C)CO)C3=O)n(C)n1` gave BJeLR viability 6.0.
COc1cc(/C=C/C(=O)N2CCC(C)CC2)ccc1OCc1ccccc1 was read as A1 inhib -0.2 and BJeLR viability 0.6.
`O=C(CC(Cc1ccccc1)C(=O)O)Nc1cccc(C(F)(F)F)c1` (stereo unspecified) gave A1 inhib 0.9 and BJeLR viability 1.7.
Screening COc1ccc(NC(=O)Nc2cccc3c2O[C@@H](CN(C)S(=O)(=O)c2cccs2)[C@@H](C)CN([C@@H](C)CO)C3=O)cc1 returned BJeLR viability -5.1.
Screening C[C@H]1CN([C@@H](C)CO)C(=O)c2cccc(N(C)C)c2O[C@@H]1CN(C)C(=O)Nc1cccc2ccccc12 returned BJeLR viability 3.8.
`CCc1oc2ccccc2c1C(=O)c1ccc(OC(C)=O)cc1` gave A1 inhib 0.3 and BJeLR viability 0.7.
For C[C@H](CO)N1C[C@H](C)[C@H](CN(C)C(=O)NC2CCCCC2)Oc2c(NC(=O)Nc3ccc4c(c3)OCO4)cccc2C1=O the results were BJeLR viability -2.8.
O=C(Oc1ccc2ccccc2c1)c1ccccc1Cl was read as A1 inhib -6.1 and BJeLR viability 0.2.
C[C@H]1CN([C@@H](C)CO)C(=O)c2cc(NS(=O)(=O)c3cn(C)cn3)ccc2O[C@H]1CN(C)Cc1ccncc1 was read as A1 inhib 0.2 and BJeLR viability -6.6.
For CC(=O)N1CCc2cc(NC(=S)Nc3ccccc3Cl)ccc21 the results were A1 inhib 0.5 and BJeLR viability -0.4.
Screening COc1cccc(-c2cc(C(=O)N3CCOCC3)on2)c1 returned A1 inhib -5.7 and BJeLR viability 7.1.

7 consecutive entries from above, for reference:
Screening Cc1ccc(S(=O)(=O)N(C)C[C@H]2Oc3c(NC(=O)Nc4cccc5ccccc45)cccc3C(=O)N([C@H](C)CO)C[C@H]2C)cc1 returned BJeLR viability 1.6.
CC(C)(C)N1C(=O)c2ccccc2C1=O was read as A1 inhib -0.3 and BJeLR viability -0.7.
For CCOC(=O)c1c(C(C)(C)C)oc2ccc(OCc3ccc(C(=O)OC)cc3)cc12 the results were A1 inhib 1.1 and BJeLR viability -5.4.
Screening CCN(CC)c1ccc(NC(=O)C(C)C)cc1 returned A1 inhib 0.9 and BJeLR viability 0.7.
Screening CC(C)NC(=O)N(C)C[C@@H]1Oc2c(NC(=O)c3cnccn3)cccc2C(=O)N([C@H](C)CO)C[C@@H]1C returned BJeLR viability 5.4.
`Cn1c2ccccc2c2cnn(CC(=O)N3CCCC3)c(=O)c21` gave A1 inhib -1.6 and BJeLR viability -5.0.
CCOC(CCn1c(SC)nc2c(sc3ccccc32)c1=O)OCC was read as A1 inhib -1.0 and BJeLR viability -1.3.

More structures follow.
For C[C@H]1CN([C@@H](C)CO)C(=O)c2cc(NS(=O)(=O)c3ccccc3)ccc2O[C@@H]1CN(C)Cc1ccc(-c2ccccc2)cc1 the results were A1 inhib -0.7 and BJeLR viability 0.9.
Screening COc1ccc2c(c1)c(C(=O)CNc1nc(C)cs1)c(C)n2C returned A1 inhib 0.3 and BJeLR viability -4.2.
Cc1noc(C)c1NC(=O)Nc1ccc2c(c1)C(=O)N([C@H](C)CO)C[C@@H](C)[C@H](CN(C)C(=O)Nc1ccc3c(c1)OCO3)O2 was read as A1 inhib 1.3 and BJeLR viability -2.3.
Screening COc1ccc(NC(=O)Nc2cccc3c2O[C@H](CN(C)Cc2ccc4c(c2)OCO4)[C@@H](C)CN([C@@H](C)CO)C3=O)cc1 returned BJeLR viability -0.6.
COc1ccc(Nc2nc(NCCN3CCOCC3)nc3c2cnn3C)cc1Cl was read as A1 inhib -0.8 and BJeLR viability 3.3.
Screening CCOC(=O)C1=C(C)N(c2nonc2NC(C)=O)C(N)=C(C#N)C1c1ccc(Br)cc1 (stereo unspecified) returned A1 inhib 0.9 and BJeLR viability 3.1.
O=C1CN(C(=O)c2ccco2)c2ccccc2N1 was read as A1 inhib 0.3 and BJeLR viability -4.1.
C[C@@H]1CN([C@@H](C)CO)C(=O)c2cc(NC(=O)Cc3ccccc3)ccc2O[C@@H]1CN(C)Cc1ccncc1 was read as A1 inhib 0.9 and BJeLR viability -5.1.
Cc1ccc(CNS(=O)(=O)c2ccc3oc(C(=O)O)c(C)c3c2)cc1 was read as A1 inhib 0.2 and BJeLR viability 0.9.
For COc1cc(C2CC(=O)c3c(O)cc(O)cc3O2)ccc1O (stereo unspecified) the results were A1 inhib -1.0 and BJeLR viability -0.2.
COc1ccc(S(=O)(=O)N(C)C[C@@H]2Oc3ccc(NS(C)(=O)=O)cc3C(=O)N([C@@H](C)CO)C[C@@H]2C)cc1 was read as A1 inhib -0.5 and BJeLR viability -0.8.
Cc1cccc(CCNC(=O)c2cc(=O)[nH]c3ccc(Br)cc23)c1 was read as A1 inhib 0.8 and BJeLR viability -1.9.
COc1ccc(S(=O)(=O)Nc2ccc3c(c2)C(=O)N([C@H](C)CO)C[C@H](C)[C@@H](CN(C)C(=O)Nc2ccccc2)O3)cc1 was read as A1 inhib -0.2 and BJeLR viability 4.1.
C[C@H]1CN([C@@H](C)CO)C(=O)c2cccc(NC(=O)C3CCCCC3)c2O[C@H]1CN(C)S(=O)(=O)c1ccccc1 was read as BJeLR viability 6.4.
Screening CC1(C)CC(=O)C=C(NC(=O)Nc2ccccc2)C1 returned A1 inhib 0.7 and BJeLR viability -2.9.
For COc1ccc(C(=O)Nc2ccc(-c3n[nH]c(=S)o3)cc2)cc1 the results were BJeLR viability -3.2.
CCN1CCCC1CNC(=O)c1cc2c(=O)oc3ccc(C)cc3c2s1 (stereo unspecified) was read as BJeLR viability 2.3.
For C[C@H]1CN([C@@H](C)CO)C(=O)c2cccc(NC(=O)Nc3cccc4ccccc34)c2O[C@H]1CN(C)Cc1ccncc1 the results were BJeLR viability -0.8.
Screening COc1ccc(NC(=O)N(C)C[C@H]2Oc3c(NS(=O)(=O)c4ccc(F)cc4)cccc3C(=O)N([C@@H](C)CO)C[C@H]2C)cc1 returned BJeLR viability -0.5.
`Cc1cccc[n+]1C/C=C\c1ccccc1` gave A1 inhib 0.0 and BJeLR viability 13.2.

Entries listed so far that have an NH in an aromatic ring, in the order listed:
Cc1cccc(CCNC(=O)c2cc(=O)[nH]c3ccc(Br)cc23)c1 was read as A1 inhib 0.8 and BJeLR viability -1.9.
For COc1ccc(C(=O)Nc2ccc(-c3n[nH]c(=S)o3)cc2)cc1 the results were BJeLR viability -3.2.

Following part:
CCCNC(=O)c1ccc2c(c1)sc1nc(-c3ccccc3)cn12 was read as A1 inhib -4.4 and BJeLR viability 9.4.
For Cc1cccc(N2C(=O)N(c3cccc(Cl)c3)C3CS(=O)(=O)CC32)c1 (stereo unspecified) the results were BJeLR viability 3.4.
Screening CCOc1nc2c(c(-c3ccco3)c1C#N)Cc1ccccc1-2 returned A1 inhib 1.5 and BJeLR viability 0.5.
O=C(c1cccc(C(=O)N2CCc3ccccc32)c1)N1CCc2ccccc21 was read as A1 inhib -0.6 and BJeLR viability -1.5.
Screening C[C@H](CO)N1C[C@H](C)[C@@H](CN(C)C(=O)Nc2ccc(F)cc2)Oc2ccc(NC(=O)Cc3ccccc3)cc2C1=O returned A1 inhib 0.8 and BJeLR viability -1.2.
For C[C@@H]1CN([C@H](C)CO)C(=O)c2cc(NC(=O)Nc3ccc(C(F)(F)F)cc3)ccc2O[C@@H]1CN(C)S(=O)(=O)c1cccs1 the results were A1 inhib 0.3 and BJeLR viability 8.9.
For C[C@H](CO)N1C[C@H](C)[C@H](CN(C)Cc2ccc(C(=O)O)cc2)Oc2c(NC(=O)NC3CCCCC3)cccc2C1=O the results were BJeLR viability -5.3.
O=C1CCCN2C(=N1)SC(=S)N2CN(Cc1ccccc1)Cc1ccccc1 was read as A1 inhib -0.3 and BJeLR viability -3.3.
For C[C@@H]1CN([C@H](C)CO)C(=O)c2cc(NC(=O)Nc3ccc(C(F)(F)F)cc3)ccc2O[C@H]1CN(C)Cc1ccc(-c2ccccc2)cc1 the results were A1 inhib -0.4 and BJeLR viability -3.0.
`COC(=O)CSc1c(-c2ccccc2)c2cc(Cl)ccc2[nH]c1=O` gave A1 inhib -0.4 and BJeLR viability 0.7.
For CC(Nc1nc2nonc2nc1NC(C)c1ccccc1)c1ccccc1 (stereo unspecified) the results were A1 inhib 0.4 and BJeLR viability 4.5.
`Nc1c(C(=O)NCCC2=CCCCC2)nnn1-c1cccc(C(F)(F)F)c1` gave A1 inhib 0.4 and BJeLR viability -2.5.
`C[C@H](CO)N1C[C@H](C)[C@@H](CN(C)S(C)(=O)=O)Oc2ccc(NC(=O)Nc3ccc(F)cc3)cc2C1=O` gave A1 inhib 0.9 and BJeLR viability 0.1.
C[C@H](CO)N1C[C@H](C)[C@H](CN(C)Cc2ccc(-c3ccccc3)cc2)Oc2c(NC(=O)Nc3ccccc3)cccc2C1=O was read as BJeLR viability 1.4.
N#Cc1c(N)nc2c(c1-c1ccncc1)CCCC2 was read as BJeLR viability -0.8.
Screening Cc1cc(S(N)(=O)=O)c2ncccc2c1 returned A1 inhib -0.6 and BJeLR viability 4.5.
C[C@@H]1CN([C@@H](C)CO)C(=O)c2cc(NS(=O)(=O)c3cn(C)cn3)ccc2O[C@H]1CN(C)Cc1ccc2c(c1)OCO2 was read as A1 inhib -0.5 and BJeLR viability 1.4.
Cc1csc2sc(COC(=O)Nc3ccccc3)c(C)c12 was read as A1 inhib 0.8 and BJeLR viability 2.5.
`CC1(NC(=S)Nc2ccc(O)cc2)CCS(=O)(=O)C1` (stereo unspecified) gave A1 inhib 0.8 and BJeLR viability 1.0.
Screening CCOC(=O)CN1C(=O)S/C(=C\c2ccccc2OCc2ccccc2F)C1=O returned A1 inhib -0.5 and BJeLR viability 0.3.
For C[C@@H]1CN([C@H](C)CO)C(=O)c2cc(NS(=O)(=O)c3ccc(F)cc3)ccc2O[C@H]1CN(C)S(=O)(=O)c1cccs1 the results were A1 inhib 0.0 and BJeLR viability 4.2.
For CC(=O)Oc1ccc2occ(C(=O)CCN(C)C)c2c1 the results were A1 inhib -0.2 and BJeLR viability 0.2.
O=C1N=C(c2ccccc2)S/C1=C\c1cccs1 was read as A1 inhib -4.7 and BJeLR viability 5.7.
Screening CCOC(=O)c1ccc(N=C(N)SCc2ccc(Cl)cc2)cc1 returned A1 inhib -0.4 and BJeLR viability -5.2.
Cc1cc(C(=O)Nc2cccc3c2O[C@H](CN(C)C(=O)Nc2ccc4c(c2)OCO4)[C@H](C)CN([C@@H](C)CO)C3=O)n(C)n1 was read as BJeLR viability -2.6.
Screening CCOc1ccc(OCC)c(NC(=O)C(NS(=O)(=O)c2cccs2)C(C)C)c1 (stereo unspecified) returned BJeLR viability -6.9.
Screening CC1=CC(C)C2COC(c3ccccc3OCc3ccccc3)C1C2C (stereo unspecified) returned A1 inhib -0.1 and BJeLR viability -2.5.
`O=C1c2ccccc2-c2nn(C(=O)C3CCCCC3)c3cccc1c23` gave A1 inhib -0.3 and BJeLR viability -3.0.
Screening COc1ccc(S(=O)(=O)Nc2cccc3c2O[C@@H](CN(C)Cc2ccc(Cl)c(Cl)c2)[C@@H](C)CN([C@H](C)CO)C3=O)cc1 returned BJeLR viability 3.2.
For COc1cc(C2C3=C(CCCC3=O)Nc3[nH]c(=O)[nH]c(=O)c32)cc(OC)c1OC (stereo unspecified) the results were A1 inhib 0.6 and BJeLR viability 4.1.
Screening N#Cc1ccc(C2SCCCS2)cc1 returned A1 inhib -1.2 and BJeLR viability 3.6.
C[C@H]1CN([C@@H](C)CO)C(=O)c2cc(NC(=O)CCC(F)(F)F)ccc2O[C@@H]1CN(C)Cc1ccccc1 was read as A1 inhib 0.4 and BJeLR viability 1.1.
For O=C(Cn1nnc(-c2cc(C(F)(F)F)cc(C(F)(F)F)c2)n1)c1ccc(Cl)cc1 the results were A1 inhib -0.8 and BJeLR viability -0.6.
For COc1ccccc1CC(=O)NCc1ccc(-c2cccs2)cc1 the results were A1 inhib 1.2 and BJeLR viability 3.1.

Reprinted at random: two records from the list.
COc1cc(/C=C/C(=O)N2CCC(C)CC2)ccc1OCc1ccccc1 was read as A1 inhib -0.2 and BJeLR viability 0.6.
`Nc1c(C(=O)NCCC2=CCCCC2)nnn1-c1cccc(C(F)(F)F)c1` gave A1 inhib 0.4 and BJeLR viability -2.5.

Not all compounds are listed, so the mix of outcomes need not match the whole.
